# D2 PAM: Beta-Arrestin HTS for Positive Allosteric Modulators of the Human D2 Dopamine Receptor: Potentiators. AID 624464, 2012. 360,000 tested, 0.23% active. DiscoveRx D2 beta-arrestin cells, luminescence, 90 min; 100% = 57 uM dopamine signal. potentiation, % (concentration not given with the values); active = potentiation of 50% or more; inconclusive = 30% to 50%; inactive = 30% or less;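 further: compound concentration not given in the record; tested on top of an EC20 dose of dopamine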
# Target sequence (P14416 whole entry, looked up): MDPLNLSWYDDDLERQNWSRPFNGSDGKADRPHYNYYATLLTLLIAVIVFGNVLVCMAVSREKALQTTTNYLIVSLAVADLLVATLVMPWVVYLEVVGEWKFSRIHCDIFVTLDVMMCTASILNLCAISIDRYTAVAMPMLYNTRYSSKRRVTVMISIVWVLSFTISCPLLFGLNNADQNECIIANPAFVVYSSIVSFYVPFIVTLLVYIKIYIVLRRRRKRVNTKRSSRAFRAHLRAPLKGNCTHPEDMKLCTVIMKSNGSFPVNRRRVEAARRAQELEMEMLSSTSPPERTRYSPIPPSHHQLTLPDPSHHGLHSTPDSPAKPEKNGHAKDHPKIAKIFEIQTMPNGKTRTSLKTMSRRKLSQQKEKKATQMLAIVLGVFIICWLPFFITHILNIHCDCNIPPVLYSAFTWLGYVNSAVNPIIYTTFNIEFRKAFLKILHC
#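 D2 cells co-treated with compound plus 50 nM dopamine (EC20) for 90 min at 37 deg C to detect potentiation. Beta-arrestin recruitment was read as enzyme-fragment luminescence after 1 h at ambient temperature. Full response was set by 57 uM dopamine.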
# Six1-Eya2 inh: qHTS Assay for Inhibitors of the Six1/Eya2 Interaction | activity change, % (no concentration beside the values) | Homeobox protein SIX1 (Homo sapiens) + Protein phosphatase EYA2 (Homo sapiens), … | 360,000 tested, 0.56% active | AlphaScreen GST-Six1/His-Eya2 binding, biochemical; active compounds read low; control for the full effect not named in the record; in the data active = activity change below about -65%; inconclusive = about -30% to -65%; inactive = above about -30%; further: on the % scale 0 is the no-effect control and ±100 the full control effect
#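 AlphaScreen luminescence read after one hour at 37 °C in darkness. Pin-transferred compounds met GST-Six1 and His-Eya2 protein (5X stock 250 nM/500 nM) plus glutathione donor and Ni-chelate acceptor beads (5X, 50 ug/mL).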
# D2 ag: Beta-Arrestin HTS for Positive Allosteric Modulators of the Human D2 Dopamine Receptor: Agonists; D(2) dopamine receptor (Homo sapiens), P14416; DiscoveRx PathHunter D2 beta-arrestin, luminescence, 90 min; 100% = 57 uM dopamine signal; activation, % (test concentration not listed); 360,000 tested, 0.084% active; in the data active = activation above about 40%; inconclusive = about 15% to 40%; inactive = below about 15%; further: compound concentration not given in the record; the text of the record calls up to 30% inactive
#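 DiscoveRx PathHunter D2 beta-arrestin cells (2,100/well) attached overnight, then compound-stimulated 90 min at 37 C in HBSS/10 mM HEPES/0.1% Tween-20 buffer; beta-galactosidase complementation read by luminescence after 1 h at ambient temperature. Dopamine 57 uM final (EC100) as control.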
# gsp antag: qHTS for Antagonists of gsp, the Etiologic Mutation Responsible for Fibrous Dysplasia/McCune-Albright Syndrome: qHTS | gsp-mutant cells, cAMP HTRF, 30 min; control for the full effect not named in the record | Potency, µM (series often up to 76.9 µM), without a hit: at the highest dose activity change, negative = inhibition, actives largely listed as inhibitors | 340,000 tested, 0.4% active | AID 624288, 2012; active = falling curve of any shape with a large fitted effect; inconclusive = falling curve, mostly with a smaller effect; inactive = flat or rising curve; cell line not stated here;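 further: intracellular cAMP measured with PDE inhibitor Ro 20-1724 present during compound exposure; potency means the concentration at half of the fitted maximal effect; on the % scale 0 is the no-effect control and ±100 the full control effect; nearly all actives have a fitted effect of over 65% in size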
#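 G418-selected cells were plated in DMEM/10% FBS for 16-24 h at 37C, then treated with compounds plus the PDE inhibitor […] (300 uM solution added) for 30 min at 37C. Intracellular cAMP was measured by HTRF after 30 min lysis at room temperature.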
# CtBP-E1A blk: qHTS Assay for Inhibitors of the CtBP/E1A Interaction; CtBP / adenovirus E1A interaction (AlphaScreen); AlphaScreen GST-E1A/His-CtBP binding, 1536-well; active compounds read low; control for the full effect not named in the record; activity change, % (test concentration not listed); 340,000 tested, 0.49% active; AID 651724, 2012; in the data active means activity change below about -65%; inconclusive means about -30% to -65%; inactive means above about -30%; further: on the % scale 0 is the no-effect control and ±100 the full control effect
#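 Steps: dispense buffer (Tris pH 8.0, NaCl 300 mM, TCEP 1 mM, BSA, Tween 20); add 5X protein mix (GST-E1A, His-CtBP, 125 nM each); pin 23 nL compound; 2 h at 37 °C, dark; add 5X beads (50 ug/mL); 1 h; read.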
# gsp agonist: qHTS for Agonist of gsp, the Etiologic Mutation Responsible for Fibrous Dysplasia/McCune-Albright Syndrome: qHTS; gsp mutant cells, cAMP HTRF, 30 min; control for the full effect not named in the record; Potency, µM (doses to about 76.9 µM), without a hit: top-dose activation (cAMP increase), hits mostly activators; 340,000 tested, 0.13% active; AID 624287, 2012; active = well fitted activation curve with a large enough effect; inconclusive = small, poorly fitted or top-dose-only effect, or another doubt; inactive = no such curve, though single readings can be large or run the other way; cell line not stated here;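 further: phosphodiesterase inhibitor Ro 20-1724 added with compounds to block cAMP breakdown; potency means the concentration at half of the fitted maximal effect; nearly all actives have a fitted effect of over 60% in size; about a fifth of the inactives were tested at one dose only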
#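 Cells in DMEM/10% FBS with G418 were pretreated with compounds in DMSO plus […] (300 uM stock) for 30 min at 37C. cAMP was measured by HTRF (cAMP-d2 plus anti-cAMP antibody-K) after 30 min at room temperature.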
# Starred values were filed as active, the others as inactive; ? = inconclusive; nt = not tested or not shown; [ ] = remark or other dose. Outcome played no part in choosing rows; 1.4% or so of the library scored in one or more.
SMILES,D2 PAM,Six1-Eya2 inh,D2 ag,gsp antag,CtBP-E1A blk,gsp agonist
O=C(COC(=O)C1=COCCO1)Nc1cc(Cl)c(Cl)cc1Cl,-10,6,-4.5,8%,-10,-1%
CCOC(=O)c1cc(-c2ccccc2)sc1NC(=O)c1ccc(OC)cc1,-2,4,-2.2,-1%,8,2%
COc1ccc([C@H]2C[C@@H](n3cc(COC(=O)c4ccccc4)nn3)[C@H](O)CN2CC2CCCCC2)cc1,-1,4,-1.9,nt,-6,4%
Cc1cc(C)c2sc(N(CCCN(C)C)C(=O)c3ccc(S(=O)(=O)N4CCCc5ccccc54)cc3)nc2c1,-4,?,8.8,8%,?,-58%[inhibitor]
Cc1ccc(S(=O)(=O)/N=C(/Nc2ccc(O)c(C(=O)O)c2)c2ccccc2)cc1,0,0,-5.6,9%,-1,-138%[inhibitor]
Cc1cc(NC(=O)c2sccc2C)n(-c2cccc(Cl)c2)n1,-17,0,-5.6,-10%,7,-49%[inhibitor]
COc1ccccc1NC(=O)COC(=O)c1ccc2ccccc2n1,-5,7,-1.2,-3%,12,14%
COc1ccc(NC2c3ccccc3C(=O)N2c2cccnc2)cc1Cl (stereo not given),-5,-5,-1.8,-6%,-9,-28%
Cc1ccc(C(=O)COC(=O)c2nc3nccc(C)n3n2)c(C)c1,-22,4,-7.1,-4%,0,2%
CN(C)CCCNC(=O)c1cc(C(=O)c2ccccc2F)c[nH]1,-19,?,-6.0,11%,nt,-60%[inhibitor]
CCC(C(=O)N1CCCC1)n1nc(C)c2c(C)n(-c3ccccc3)nc2c1=O (stereo not given),1,20,3.2,-11%,6,-34%
O=C(c1c(O)c2ccccc2oc1=O)C1CCCCC1,-3,4,0.0,?,5,2%
CCCc1cc(=O)[nH]c(SCc2cc(Cl)ccc2OC(F)F)n1,-5,10,-0.2,-2%,-13,?
COc1ccc(C(=O)NNC(=O)c2ccccn2)cc1,10,-9,?,-6%,nt,11%
Cc1csc(NC(=O)C2C3C=CC(O3)C2C(=O)O)n1 (stereo not given),-6,1,-1.7,-1%,-1,0%
O=C1Nc2ccccc2CCc2ccccc21,0,-2,1.7,-6%,-1,-72%
CCCn1c(C2CCCN2c2nc(C)cs2)nc2cc(Cl)c(Cl)cc21 (stereo not given),-16,-13,-1.5,-20%,-28,nt
Cn1/c(=N/N=C/c2ccc(Cl)c([N+](=O)[O-])c2)sc2ccccc21,-13,-11,-6.4,8%,0,-8%[15.4 µM]
CCCc1cc(=O)oc2cc3occ(C)c3cc12,-14,0,-4.0,1%,5,21%
CCCCn1c(N)c(N(CCC(C)C)C(=O)COC(=O)c2cccnc2Cl)c(=O)[nH]c1=O,-3,4,-2.1,-1%,2,4%
O=C(COc1ccc(F)cc1)N1CCC(c2ccccc2)C1 (stereo not given),-18,-6,-4.5,-4%,-14,?
O=C(N/N=C/c1ccc(OC(=O)c2cccc(Br)c2)cc1)c1cccnc1,-3,-6,10,0%,-10,-20%
CC(C)CC(C(=O)OCC(=O)N1CCN(c2ccccc2)CC1)N1C(=O)c2ccccc2C1=O (stereo not given),-7,-14,1.5,-3%,8,8%
COc1ccc(N(C(=O)Cn2nnc3ccccc32)C(C(=O)NC(C)(C)C)c2ccc(OC)c(O)c2)cc1 (stereo not given),-14,5,-1.1,-5%,nt,10%
CCNC(=O)Cn1c(=O)c2c(ncn2Cc2ccccc2)n(Cc2ccccc2)c1=O,-2,0,-1.5,5%,3,-7%
COc1cc(N2C(=O)NC3CC2(C)Oc2ccccc23)cc(OC)c1OC (stereo not given),-5,9,-1.3,10%,-1,-29%
O=C(C1CCC(CNc2c(N3CCCCC3)c(=O)c2=O)CC1)N1CCc2ccccc2C1 (stereo not given),-11,3,0.5,-16%,-23,-21%
O=C(Nc1nnc(-c2ccco2)o1)c1ccc(S(=O)(=O)N2CCCCC2)cc1,-11,-13,0.7,nt,0,-4%
CCc1ccc(/C=C/c2c([N+](=O)[O-])c(=O)n(C)c(=O)n2C)cc1,-9,-20,8.0,?,?,8%
CC(C)CCN1CCN(Cc2ccsc2)CC1CCO (stereo not given),-10,-3,-1.9,12%,16,-4%
O=S(=O)(Cc1ccccc1)N1CCCCC1,-2,5,-3.1,3%,5,-27%
c1coc(CNc2ncnc3c2oc2ccccc23)c1,-1,-1,0.3,-12%,2,1%
COC(=O)c1c(-c2ccc(F)cc2)csc1NC(=O)C1CCCO1 (stereo not given),-8,0,-5.6,?,-2,12%[15.4 µM]
COC(=O)c1sccc1NC(=S)Nc1cc(OC)ccc1OC,13,12,-4.1,13%,20,-7%
C/C(=N\NC(N)=S)c1ccccc1,-11,-3,-5.7,9%,-4,20%
C(=C\c1ccccc1)/CN1CCN(C(c2ccnc3ccccc23)c2nnnn2C2CCCC2)CC1 (stereo not given),-11,-6,4.0,nt,-15,nt
Cc1cccc(Nc2nc(N)nc(CN3CCC(C(N)=O)CC3)n2)c1C,-7,-7,-3.8,12%,-4,-26%
CCOc1ccc(/C=N/NC(=O)c2ccccc2NC(=O)c2ccc(OC)cc2)cc1,-9,2,0.8,-24%,-3,-34%
Cc1nc2ccccc2cc1OCc1ccc(Cl)cc1,13,15,4.1,-27%,9,-46%[inhibitor]
O=C(CC1Nc2ccccc2NC1=O)NCCCN1CCCCCC1 (stereo not given),-2,-4,-1.3,12%,2,-8%

# 3 entries already listed, ordered by SMILES length, largest number first:
SMILES,D2 PAM,Six1-Eya2 inh,D2 ag,gsp antag,CtBP-E1A blk,gsp agonist
Cc1cc(C)c2sc(N(CCCN(C)C)C(=O)c3ccc(S(=O)(=O)N4CCCc5ccccc54)cc3)nc2c1,-4,?,8.8,8%,?,-58%[inhibitor]
Cn1/c(=N/N=C/c2ccc(Cl)c([N+](=O)[O-])c2)sc2ccccc21,-13,-11,-6.4,8%,0,-8%[15.4 µM]
O=C(N/N=C/c1ccc(OC(=O)c2cccc(Br)c2)cc1)c1cccnc1,-3,-6,10,0%,-10,-20%

# (list continues)
SMILES,D2 PAM,Six1-Eya2 inh,D2 ag,gsp antag,CtBP-E1A blk,gsp agonist
COc1cc(C(=O)NC(C)CCc2ccccc2)cc(OC)c1OC (stereo not given),-8,-3,-2.7,7%,-5,0%[15.4 µM]
CCOCCCN(C(=O)Cn1nnc(-c2ccc(C)o2)n1)C(C(=O)NCC1CCCO1)c1ccc(F)cc1 (stereo not given),-5,-1,-3.0,1%,7,9%[15.4 µM]
CCOc1ccc(CCNC(=O)COC(=O)c2cccnc2OCC)cc1OCC,0,1,0.9,4%,9,22%
O=C(NCc1ccccn1)c1n[nH]c2ccccc12,5,3,-4.6,15%,6,4%
COc1ccccc1C(=O)N/N=C(\C)CC(=O)Nc1ccccc1NC(C)=O,-8,-16,12,4%,nt,-17%
Cc1sc2ncn(CC(=O)NCC3COc4ccccc4O3)c(=O)c2c1S(=O)(=O)N1CCOCC1 (stereo not given),0,-9,2.6,-3%,-1,17%
O=C(COC(=O)[C@H](Cc1ccccc1)NC(=O)c1ccco1)Nc1ccccc1OC(F)F,-5,2,1.2,-13%,-19,5%
COc1cccc(CNC(=O)CCCSc2ccccc2)c1,-3,7,-2.5,3%,4,14%[15.4 µM]
Cc1ccc(Nc2nc(N)nc(CN3CCN(Cc4ccc5c(c4)OCO5)CC3)n2)c(C)c1,-36,-4,1.9,10%,-2,-32%
CCN(CC)c1ccc(NS(=O)(=O)c2ccc(OC)cc2)cc1,-1,-4,5.0,14%,1,27%

# Single records, from the list above. Screens in order: D2 PAM	Six1-Eya2 inh	D2 ag	gsp antag	CtBP-E1A blk	gsp agonist
# Cc1csc(NC(=O)C2C3C=CC(O3)C2C(=O)O)n1 (stereo not given) in the list: -6	1	-1.7	-1%	-1	0%
# c1coc(CNc2ncnc3c2oc2ccccc23)c1 in the list: -1	-1	0.3	-12%	2	1%

# The listing continues:
SMILES,D2 PAM,Six1-Eya2 inh,D2 ag,gsp antag,CtBP-E1A blk,gsp agonist
COc1cccc2cc(C(=O)NC(C)c3ccccc3)c(=O)oc12 (stereo not given),-11,11,-3.0,5%,0,1%
CN(CCc1ccccc1)C1CCCN(C(=O)Cn2cccn2)C1 (stereo not given),-18,3,0.2,19%,2,4%
Cc1cc(Cl)cc(C)c1OCCCCn1ccnc1,7,-3,4.0,-9%,1,9%
O=S1(=O)[C@H]2C[C@@H]3CC[C@]2(CN1Cc1cccc(F)c1)O3,-8,4,-4.4,4%,6,nt
O=C1/C(=C/c2ccccc2Cl)SC(=S)N1CCC(=O)N1CCCCC1CCO (stereo not given),-5,-14,-2.4,-3%,nt,2%
CCN(CC(=O)Nc1ccc(NC(C)=O)cc1)C(=O)CSCC(=O)Nc1ccc(C)cc1,-13,5,-10,2%,6,2%[15.4 µM]
O=C(Nc1ccc(Oc2cccnc2)cc1)C1CCN(Cc2ccccc2)CC1,-33,0,1.6,-3%,16,-3%[15.4 µM]
CSc1c(-c2ccccn2)c(N)nn1C(=O)C1CC1,-8,15,0.3,-12%,13,5%[15.4 µM]
O=S1(=O)C[C@H](N2CCN(CCO)CC2)[C@@H](COCc2ccccc2)N1,-3,3,-2.4,nt,7,nt
O=C(CCn1cnc2ncccc2c1=O)N1CCN(c2cccc(Cl)c2)CC1,1,5,-1.9,-2%,2,13%[15.4 µM]
Cc1ccc(N2CCN(C(=O)c3ccccc3Br)CC2)c(C)c1,-15,3,4.2,-4%,1,2%
Cc1cc(Br)cn2c(CC(C)(C)C)c(C3CCCCC3)nc12,-7,10,-5.4,nt,-15,nt

# Sorted by value in D2 ag (high to low): 3 from the list above
SMILES,D2 PAM,Six1-Eya2 inh,D2 ag,gsp antag,CtBP-E1A blk,gsp agonist
Cc1ccc(N2CCN(C(=O)c3ccccc3Br)CC2)c(C)c1,-15,3,4.2,-4%,1,2%
O=C(Nc1ccc(Oc2cccnc2)cc1)C1CCN(Cc2ccccc2)CC1,-33,0,1.6,-3%,16,-3%[15.4 µM]
CSc1c(-c2ccccn2)c(N)nn1C(=O)C1CC1,-8,15,0.3,-12%,13,5%[15.4 µM]

# Screening results: PubChem BioAssay, National Center for Advancing Translational Sciences (NCATS)
